A1_apoptosis_2 = compounds inhibiting A1, read as caspase activation | MEF A1-2A-BIM cells, caspase-Glo luminescence, 3 h; percent of clofoctol response, DMSO zero | caspase activation, % (test concentration not listed) | 24,000 tested, under 10 active | AID 2465; in the data active = caspase activation above about 5.9%;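 note: wells of about 30 µL received 50 nL stock; the first replicate is given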
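Evaluation: Caspase-3/7 activity from luminescence increase | Assay system: A1-2A-BIM mouse embryonic fibroblasts | Quantity: 2500 MEF cells/well | Medium: RPMI-1640 plus 10% FBS | Detection: Caspase-Glo 3/7 luminescence, 1 h at room temperature | Dosing: 50 nL compound per well, pinned | Timing: Cells settled overnight, compound exposure 3 h at 37 °C, 5% CO2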
Numbers without * were called inactive.

SMILES A1_apoptosis_2
COc1ccc(NC(=O)Nc2ccc3c(c2)CC(=O)N([C@H](C)CO)C[C@@H](C)[C@H](CN(C)Cc2ccc4c(c2)OCO4)O3)cc1 1.2
Cc1noc(C)c1S(=O)(=O)Nc1ccc2c(c1)C(=O)N([C@@H](C)CO)C[C@@H](C)[C@@H](CN(C)S(=O)(=O)c1ccccc1)OCCCC[C@@H](C)O2 -0.4
C[C@H]1CN([C@@H](C)CO)C(=O)c2cc(NC(=O)Nc3ccc(C(F)(F)F)cc3)ccc2O[C@@H]1CN(C)S(=O)(=O)c1cn(C)cn1 -0.4
Cc1noc(C)c1S(=O)(=O)N(C)C[C@H]1OCCCC[C@H](C)Oc2ccc(NS(=O)(=O)c3cccs3)cc2C(=O)N([C@@H](C)CO)C[C@@H]1C 0.8
CC(C)NC(=O)Nc1cccc2c1O[C@H](CN(C)Cc1ccc(Cl)c(Cl)c1)[C@H](C)CN([C@H](C)CO)C2=O -0.3
C[C@H](CO)N1C[C@H](C)[C@@H](CN(C)Cc2ccc(-c3ccccc3)cc2)Oc2ccc(NC(=O)c3ccncc3)cc2CC1=O 0.4
C[C@@H]1CN([C@H](C)CO)C(=O)Cc2cc(NC(=O)Nc3cccc4ccccc34)ccc2O[C@H]1CN(C)S(=O)(=O)c1cn(C)cn1 -1.2
C[C@@H]1CN([C@@H](C)CO)C(=O)c2cccc(NC(=O)NC3CCCCC3)c2O[C@H]1CN(C)C(=O)NC1CCCCC1 0.8
C[C@H]1CCCCO[C@@H](CN(C)C(=O)C2CCCCC2)[C@@H](C)CN([C@@H](C)CO)C(=O)c2cc(NC(=O)Nc3ccccc3)ccc2O1 -1.3
C[C@@H]1CN([C@@H](C)CO)C(=O)c2cccc(NS(=O)(=O)c3ccc(Cl)cc3)c2O[C@@H]1CN(C)CC1CCCCC1 -2.0
C[C@@H]1CCCCO[C@H](CN(C)S(=O)(=O)c2ccc(F)cc2)[C@H](C)CN([C@@H](C)CO)C(=O)c2cc(NC(=O)c3ccncc3)ccc2O1 0.0
C[C@H](CO)N1C[C@H](C)[C@@H](CN(C)S(=O)(=O)c2ccccc2)OCCCC[C@H](C)Oc2ccc(NC(=O)Nc3ccc(C(F)(F)F)cc3)cc2C1=O -1.1
C[C@@H]1CN([C@H](C)CO)C(=O)Cc2cc(NS(=O)(=O)c3ccc(F)cc3)ccc2O[C@@H]1CN(C)Cc1ccc(Oc2ccccc2)cc1 -0.3
CC(C)NC(=O)N(C)C[C@@H]1OCCCC[C@@H](C)Oc2ccc(NS(=O)(=O)c3ccccc3)cc2C(=O)N([C@H](C)CO)C[C@H]1C -2.0
C[C@@H]1CN([C@H](C)CO)C(=O)c2cccc(NS(=O)(=O)c3ccc(F)cc3)c2O[C@H]1CN(C)C(=O)NC1CCCCC1 0.6
CC(C)NC(=O)Nc1ccc2c(c1)C(=O)N([C@H](C)CO)C[C@@H](C)[C@H](CN(C)C(=O)CCC(F)(F)F)OCCCC[C@@H](C)O2 0.0
C[C@H]1CN([C@@H](C)CO)C(=O)c2cc(NC(=O)Cn3cnnn3)ccc2O[C@H]1CN(C)C(=O)NC1CCCCC1 0.7
C[C@H](CO)N1C[C@H](C)[C@H](CN(C)C(=O)c2ccncc2)OCCCC[C@H](C)Oc2ccc(NS(=O)(=O)c3cn(C)cn3)cc2C1=O -1.3
COc1cc(Br)c(/C=N/NC(=O)c2ccc(C(=O)NO)cc2)cc1OC 0.1
C[C@@H]1CCCCO[C@H](CN(C)C(=O)Nc2ccc(C(F)(F)F)cc2)[C@H](C)CN([C@H](C)CO)C(=O)c2cc(NC(=O)c3ccccc3)ccc2O1 -0.6
Cc1ccc(S(=O)(=O)N(C)C[C@H]2Oc3ccc(NC(=O)Nc4c(C)noc4C)cc3C(=O)N([C@H](C)CO)C[C@@H]2C)cc1 2.4
Cc1noc(C)c1S(=O)(=O)Nc1ccc2c(c1)C(=O)N([C@H](C)CO)C[C@@H](C)[C@@H](CN(C)CC1CC1)O2 0.6
CNC[C@@H]1Oc2ccc(NC(=O)Nc3ccccc3)cc2CC(=O)N([C@H](C)CO)C[C@H]1C 1.4
Cc1noc(C)c1NC(=O)N(C)C[C@H]1Oc2ccc(NC(=O)C3CCCCC3)cc2C(=O)N([C@H](C)CO)C[C@H]1C 1.1
COc1ccc(CN(C)C[C@H]2Oc3ccc(NC(=O)C4CCCCC4)cc3C(=O)N([C@H](C)CO)C[C@@H]2C)cc1 -0.5

As a working copy, some entries already given:
SMILES A1_apoptosis_2
C[C@@H]1CCCCO[C@H](CN(C)S(=O)(=O)c2ccc(F)cc2)[C@H](C)CN([C@@H](C)CO)C(=O)c2cc(NC(=O)c3ccncc3)ccc2O1 0.0
C[C@H](CO)N1C[C@H](C)[C@@H](CN(C)S(=O)(=O)c2ccccc2)OCCCC[C@H](C)Oc2ccc(NC(=O)Nc3ccc(C(F)(F)F)cc3)cc2C1=O -1.1
C[C@@H]1CN([C@H](C)CO)C(=O)Cc2cc(NS(=O)(=O)c3ccc(F)cc3)ccc2O[C@@H]1CN(C)Cc1ccc(Oc2ccccc2)cc1 -0.3
CC(C)NC(=O)N(C)C[C@@H]1OCCCC[C@@H](C)Oc2ccc(NS(=O)(=O)c3ccccc3)cc2C(=O)N([C@H](C)CO)C[C@H]1C -2.0
C[C@@H]1CN([C@H](C)CO)C(=O)c2cccc(NS(=O)(=O)c3ccc(F)cc3)c2O[C@H]1CN(C)C(=O)NC1CCCCC1 0.6
CC(C)NC(=O)Nc1ccc2c(c1)C(=O)N([C@H](C)CO)C[C@@H](C)[C@H](CN(C)C(=O)CCC(F)(F)F)OCCCC[C@@H](C)O2 0.0
C[C@H]1CN([C@@H](C)CO)C(=O)c2cc(NC(=O)Cn3cnnn3)ccc2O[C@H]1CN(C)C(=O)NC1CCCCC1 0.7
C[C@H](CO)N1C[C@H](C)[C@H](CN(C)C(=O)c2ccncc2)OCCCC[C@H](C)Oc2ccc(NS(=O)(=O)c3cn(C)cn3)cc2C1=O -1.3
COc1cc(Br)c(/C=N/NC(=O)c2ccc(C(=O)NO)cc2)cc1OC 0.1
C[C@@H]1CCCCO[C@H](CN(C)C(=O)Nc2ccc(C(F)(F)F)cc2)[C@H](C)CN([C@H](C)CO)C(=O)c2cc(NC(=O)c3ccccc3)ccc2O1 -0.6
Cc1ccc(S(=O)(=O)N(C)C[C@H]2Oc3ccc(NC(=O)Nc4c(C)noc4C)cc3C(=O)N([C@H](C)CO)C[C@@H]2C)cc1 2.4
Cc1noc(C)c1S(=O)(=O)Nc1ccc2c(c1)C(=O)N([C@H](C)CO)C[C@@H](C)[C@@H](CN(C)CC1CC1)O2 0.6
CNC[C@@H]1Oc2ccc(NC(=O)Nc3ccccc3)cc2CC(=O)N([C@H](C)CO)C[C@H]1C 1.4
Cc1noc(C)c1NC(=O)N(C)C[C@H]1Oc2ccc(NC(=O)C3CCCCC3)cc2C(=O)N([C@H](C)CO)C[C@H]1C 1.1
COc1ccc(CN(C)C[C@H]2Oc3ccc(NC(=O)C4CCCCC4)cc3C(=O)N([C@H](C)CO)C[C@@H]2C)cc1 -0.5

New compounds follow:
SMILES A1_apoptosis_2
C[C@H](CO)N1C[C@H](C)[C@H](CN(C)Cc2ccc3c(c2)OCO3)Oc2ccc(NC(=O)Nc3ccccc3)cc2C1=O -1.2
COc1ccc(S(=O)(=O)N(C)C[C@@H]2Oc3ccc(NC(=O)CCC(F)(F)F)cc3CC(=O)N([C@@H](C)CO)C[C@@H]2C)cc1 -1.6
COc1ccc(S(=O)(=O)Nc2ccc3c(c2)C(=O)N([C@@H](C)CO)C[C@@H](C)[C@@H](CN(C)C(=O)c2ccncc2)OCCCC[C@H](C)O3)cc1 1.2
Cc1noc(C)c1NC(=O)N(C)C[C@@H]1Oc2ccc(NS(=O)(=O)c3cn(C)cn3)cc2C(=O)N([C@H](C)CO)C[C@H]1C -1.4
COc1ccc(NC(=O)Nc2ccc3c(c2)C(=O)N([C@@H](C)CO)C[C@H](C)[C@@H](CN(C)C(=O)NC2CCCCC2)OCCCC[C@H](C)O3)cc1 0.7
COc1ccc(S(=O)(=O)Nc2ccc3c(c2)C(=O)N([C@@H](C)CO)C[C@H](C)[C@@H](CN(C)C(=O)Nc2ccccc2)O3)cc1 0.5
CNC[C@@H]1OCCCC[C@H](C)Oc2ccc(NC(=O)Nc3ccc(OC)cc3)cc2C(=O)N([C@@H](C)CO)C[C@@H]1C -0.1
C[C@@H]1CN([C@@H](C)CO)C(=O)c2cccc(NC(=O)Nc3ccc(C(F)(F)F)cc3)c2O[C@@H]1CN(C)C(=O)Nc1cccc2ccccc12 -0.3
C[C@@H]1CN([C@H](C)CO)C(=O)c2cc(NC(=O)NC3CCCCC3)ccc2O[C@@H](C)CCCCO[C@H]1CN(C)C(=O)c1ccncc1 0.4
C[C@H]1CN([C@@H](C)CO)C(=O)c2cccc(NC(=O)C3CC3)c2O[C@@H]1CN(C)Cc1ccc2c(c1)OCO2 0.3
C[C@@H]1CCCCO[C@H](CN(C)Cc2ccncc2)[C@H](C)CN([C@H](C)CO)C(=O)c2cc(NC(=O)Nc3cccc4ccccc34)ccc2O1 -1.7
CC(C)NC(=O)Nc1ccc2c(c1)C(=O)N([C@H](C)CO)C[C@H](C)[C@@H](CN(C)CC1CCCCC1)O2 0.9
C[C@H](CO)N1C[C@H](C)[C@@H](CN(C)C(=O)NC2CCCCC2)Oc2ccc(NC(=O)Nc3ccc4c(c3)OCO4)cc2CC1=O -0.4
Cc1noc(C)c1NC(=O)Nc1ccc2c(c1)CC(=O)N([C@@H](C)CO)C[C@H](C)[C@@H](CN(C)S(C)(=O)=O)O2 -0.5
Cc1noc(C)c1S(=O)(=O)Nc1ccc2c(c1)CC(=O)N([C@@H](C)CO)C[C@@H](C)[C@H](CN(C)C(=O)NC1CCCCC1)O2 -1.5
Cc1ccc(S(=O)(=O)Nc2ccc3c(c2)C(=O)N([C@H](C)CO)C[C@H](C)[C@@H](CN(C)Cc2ccncc2)OCCCC[C@@H](C)O3)cc1 -0.6
C[C@@H]1CCCCO[C@@H](CN(C)C(=O)C2CCCCC2)[C@H](C)CN([C@H](C)CO)C(=O)c2cc(NC(=O)Nc3ccc(C(F)(F)F)cc3)ccc2O1 -0.7
C[C@H](CO)N1C[C@H](C)[C@@H](CN(C)Cc2ccc(C(F)(F)F)cc2)Oc2c(NC(=O)NC3CCCCC3)cccc2C1=O -1.2
COc1ccc(CN(C)C[C@@H]2OCCCC[C@@H](C)Oc3ccc(NS(C)(=O)=O)cc3C(=O)N([C@@H](C)CO)C[C@H]2C)cc1 -1.1
C[C@H](CO)N1C[C@H](C)[C@H](CN(C)C(=O)Cc2ccccc2)OCCCC[C@H](C)Oc2ccc(NC(=O)Nc3ccccc3)cc2C1=O -0.2
CNC[C@@H]1Oc2ncc(-c3cc4ccccc4o3)cc2C(=O)N([C@H](C)CO)C[C@@H]1C -0.6
C[C@H]1CN([C@@H](C)CO)C(=O)c2cccc(NC(=O)CCCCCC(=O)Nc3ccccc3N)c2O[C@@H]1CN(C)C(=O)Nc1ccccc1 1.2
COC(=O)c1c2oc(c1C(=O)OC)C(=O)N[C@H](Cc1ccccc1)Cn1cc(nn1)CNC(=O)[C@H](Cc1ccccc1)NC(=O)N[C@@H](CO)CC2 0.5
C[C@@H]1CN([C@H](C)CO)C(=O)CCCn2cc(nn2)CO[C@H]1CN(C)S(C)(=O)=O -1.1
C[C@H](CO)N1C[C@H](C)[C@@H](CN(C)S(=O)(=O)c2ccc(F)cc2)OCCCC[C@H](C)Oc2ccc(NS(=O)(=O)c3cccs3)cc2C1=O 1.5
Next entries follow.
SMILES A1_apoptosis_2
Cc1noc(C)c1NC(=O)N(C)C[C@@H]1Oc2ccc(NC(=O)Nc3cccc4ccccc34)cc2C(=O)N([C@@H](C)CO)C[C@H]1C -0.3
C[C@H](CO)N1C[C@H](C)[C@H](CN(C)Cc2ccncc2)OCCCC[C@H](C)Oc2ccc(NC(=O)Nc3ccccc3)cc2C1=O 0.6
C[C@@H]1CN([C@@H](C)CO)C(=O)c2cccc(NC(=O)C3CCOCC3)c2O[C@@H]1CN(C)Cc1ccccc1 0.3
Cc1noc(C)c1NC(=O)N(C)C[C@H]1Oc2ccc(NS(=O)(=O)c3ccccc3)cc2CC(=O)N([C@@H](C)CO)C[C@H]1C -1.0
C[C@H](CO)N1C[C@H](C)[C@H](CN(C)C(=O)Nc2ccc3c(c2)OCO3)Oc2ccc(NC(=O)Cn3cnnn3)cc2CC1=O -0.4
Cc1noc(C)c1NC(=O)Nc1ccc2c(c1)C(=O)N([C@H](C)CO)C[C@H](C)[C@@H](CN(C)Cc1ccc(C(F)(F)F)cc1)OCCCC[C@H](C)O2 -0.7
Cc1ccc(S(=O)(=O)N(C)C[C@@H]2OCCCC[C@@H](C)Oc3ccc(NC(=O)Cc4ccccc4)cc3C(=O)N([C@@H](C)CO)C[C@@H]2C)cc1 -1.8
COc1ccccc1S(=O)(=O)N(C)C[C@H]1OCc2cn(nn2)CCCC(=O)N([C@@H](C)CO)C[C@H]1C 0.0
C[C@@H]1CCCCO[C@@H](CN(C)Cc2ccc(C(=O)Nc3ccccc3N)cc2)[C@@H](C)CN([C@H](C)CO)C(=O)c2cc(NC(=O)Nc3ccc(C(F)(F)F)cc3)ccc2O1 0.6
C[C@H](CO)N1C[C@H](C)[C@@H](CN(C)C(=O)NC2CCCCC2)Oc2c(NC(=O)c3cnccn3)cccc2C1=O 1.0

Reprinted at random: three records from the list.
SMILES A1_apoptosis_2
C[C@H](CO)N1C[C@H](C)[C@H](CN(C)Cc2ccncc2)OCCCC[C@H](C)Oc2ccc(NC(=O)Nc3ccccc3)cc2C1=O 0.6
C[C@@H]1CN([C@@H](C)CO)C(=O)c2cccc(NC(=O)C3CCOCC3)c2O[C@@H]1CN(C)Cc1ccccc1 0.3
C[C@@H]1CCCCO[C@@H](CN(C)Cc2ccc(C(=O)Nc3ccccc3N)cc2)[C@@H](C)CN([C@H](C)CO)C(=O)c2cc(NC(=O)Nc3ccc(C(F)(F)F)cc3)ccc2O1 0.6

Compound activity: PubChem, Broad Institute

These rows are one share of the data, so the mix of outcomes need not match the whole.
